# SARS PLP yeast = SARS-CoV PLP inhibition in yeast; S. cerevisiae expressing SARS-CoV PLpro, growth rescue; control for the full effect not named in the record; Potency, µM (series often up to 32.9 µM), without a hit: top-dose activity, positive = growth rescue; hit rate 0.19% among 330,000; AID 485353; active means well fitted rising curve with a large enough effect; inconclusive means small, poorly fitted or top-dose-only effect; inactive means no such curve, though single readings can be large or run the other way; further: 0% is about no effect; nearly all actives have a fitted effect of over 55% in size; growth read by luminescence after 48 h
# RE007 growth inh = less growth of the S. pombe RE007 Vpr strain. hit rate 0.21% among 360,000. S. pombe RE007 Vpr strain, BacTiter-Glo ATP luminescence, 24 h; control for the full effect not named in the record. Potency, µM (doses to about 92.2 µM), without a hit: top-dose activity change, negative = less growth; active = well fitted falling curve with a large enough effect; inconclusive = small, poorly fitted or top-dose-only effect; inactive = no such curve, though single readings can be large or run the other way;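 further: on the % scale 0 is the no-effect control and ±100 the full control effect; nearly all actives have a fitted effect of over 50% in size; the assay follows cell death caused by Vpr and the record does not say whether a fall means rescue or toxicity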
#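 Fission yeast RE007 carrying one integrated HIV-1 vpr copy, seeded at OD 0.01 in PMG+AL medium with 23 nL pinned compound. Grown 24 h at 30 degrees; viability read by BacTiter-Glo luminescence after 5 min.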
# StopGo reporter = lowers the luciferase signal of an FMDV 2A StopGo reporter; hit rate 1.2% among 410,000; Potency, µM (titrated, usually from 57.9 µM), for the others: at the top dose signal change, negative = less light; human cells with a luciferase reporter of 2A StopGo recoding; control for the full effect not named in the record; active = well fitted falling curve with a large enough effect; inconclusive = small, poorly fitted or top-dose-only effect; inactive = no such curve, though single readings can be large or run the other way; tested in HEK293T cells; further: on the % scale 0 is the no-effect control and ±100 the full control effect; nearly all actives have a fitted effect of over 45% in size; luciferase light after 4 h
# * hit, by the source's call; ? = inconclusive; [ ] = dose if it differs, or a comment. Potency means the concentration at half of the fitted maximal effect.
SMILES,SARS PLP yeast,RE007 growth inh,StopGo reporter
O=C(C[C@H]1C[C@H](C(=O)N2CCOCC2)[C@@]2(CCC3CCCC3)c3[nH]c4ccc(Cl)cc4c3CCN2C1=O)NCCc1ccccn1,-2%,-13%,-5%
O=C(COC(=O)Cc1ccc(F)cc1)Nc1ccc(Cl)cn1,0%,-6%,-1%
CN(CC(=O)Nc1cccc(F)c1)C(=O)CCCc1c[nH]c2ccccc12,4%,-5%,-5%
COc1ccc(CCNC(=O)Cn2c(=O)n(-c3ccc(F)cc3)c(=O)c3sccc32)cc1OC,0%,-2%,-11%
CCN(Cc1nc2cc(Cl)ccc2c(=O)[nH]1)C(=O)c1cccc(NC(=O)c2cccs2)c1,10%,2%,1%
O=C(N[C@@H](Cc1ccccc1)C(=O)N[C@@H](Cc1ccccc1)C(=O)O)OCc1ccccc1,-2%,1%,3%
Cc1ccc(C(=O)CSc2nnc(C3CC3)n2C2CC2)s1,-9%,1%,82%[activator]
Cc1cc(-n2c(C)cc(C(=O)COc3ccc(Cl)cc3C(N)=O)c2C)no1,-4%,2%,?
COc1ccc(S(=O)(=O)N2CCCCC2)cc1NC(=O)C1CC1,2%,1%,-13%
COc1ccc(C(=O)NC2CCC(O)CC2)cc1S(=O)(=O)NCc1ccc(Cl)cc1 (configuration not stated),-1%,0%,55%[activator]
C[C@@H]1CN([C@@H](C)CO)C(=O)c2cc(NC(=O)Nc3ccc4c(c3)OCO4)ccc2O[C@H]1CN(C)S(=O)(=O)c1ccc(F)cc1,2%,9%,-20%
C=CC[C@@H](CC(=O)N[C@@H](CO)Cc1ccccc1)C(=O)NCCOC(=O)[C@@H](CC=C)CC(=O)OC(C)(C)C,-1%,-4%,-9%
COCCN(CC(=O)Nc1cccc(C)c1C)C(=O)c1cc(-c2cccs2)nn1-c1ccccc1,6%,2%,-14%
COc1ccc(/C=C/C(=O)OCC(=O)Nc2ccc(S(N)(=O)=O)cc2)cc1OC,1%,4%,-11%
COc1ccc(CNC(=O)COC(=O)CCc2c[nH]c3ccccc23)cc1,0%,-8%,44%[activator]
Cc1n[nH]c(=O)c2c(NC(=O)CSc3cc(Cl)ccc3Cl)oc(C)c12,2%,13%,-17%
Cn1cc(C(CO)Cc2ccccc2)c2ccccc21 (configuration not stated),0%,1%,-22%
O=c1cc(-c2ccccc2)cc(-c2ccccc2)n1CCCO,-2%,-13%,-16%
COc1ccc(C(CNC(=O)C(C)(C)Oc2ccc(Cl)cc2)N2CCCC2)cc1 (configuration not stated),-1%,-5%,-19%
CCN(CC)S(=O)(=O)c1ccc(Cl)c(NC(=S)NC(=O)C2CCCC2)c1,5%,-10%,20µM*
CCC1CCCCN1C(=O)COC(=O)CSc1ccc(C(N)=O)cc1[N+](=O)[O-] (configuration not stated),1%,-13%,-6%
C[C@@H](NC(=O)c1ncn(C)c1C(=O)N[C@H](C)c1ccccc1)c1ccccc1,-1%,-5%,?
COc1cccc(CC(=O)NN2C(=O)NC3(CCCCC3)C2=O)c1,3%,12%,0%
COC(=O)c1cccnc1-n1c(=O)c2cccnc2n(Cc2cccc(C(F)(F)F)c2)c1=O,-5%,1%,-19%
CCOC(=O)C1CCCN(C(=O)c2ccc(S(=O)(=O)N3CCOCC3)cc2)C1 (configuration not stated),-2%,-9%,-16%
Cc1ccc(NC(=O)C2CC2C)c(Cl)c1 (configuration not stated),-2%,-13%,40%[activator]
CC(Sc1nncn1C)C(=O)Nc1ccc(N2CCCCC2)cc1 (configuration not stated),-3%,-2%,17%
O=C(CCC1CCCC1)Nc1cc(Cl)ccc1N1CCOCC1,1%,-7%,-17%
CC(Sc1n[nH]c(-c2cccs2)n1)C(=O)Nc1ccc(C(N)=O)cc1 (configuration not stated),7%,9%,-10%
CN(C(=O)c1ccc(NC(=O)Cc2cccc(NC(=O)C3CCCN(C(=O)C4CCCC4)C3)c2)cc1)C1CCCC1 (configuration not stated),1%,-12%,-26%
CON(C)C(=O)CCC1CCCN1C(=O)OC(C)(C)C (configuration not stated),-1%,0%,-21%
CC(C)(C)OC(=O)N[C@H](C(=O)OC(C)(C)C)c1ccc(C(F)(F)F)cc1,0%,-6%,-19%
O=C(COC(=O)C1=COCCO1)Nc1cc(C(F)(F)F)ccc1Cl,1%,4%,-7%
COc1ccc([C@H]2CC(=O)C=C(c3ccc(SC)cc3)C2)cc1,9%,0%,18%
COc1ccccc1NS(=O)(=O)c1cccc(C(=O)N/N=C/c2c(CO)cnc(C)c2O)c1,-3%,18%,-3%
Cc1cc(C(=O)C(=O)N(C)C)c(C)n1-c1ccc(Cl)c(Cl)c1,-1%,4%,-18%
COC(=O)[C@@]12CCCCN1[C@H](c1ccc(-c3ccc(F)cc3)cc1)[C@H]1C(=O)N(C)C(=O)[C@H]12,-45%,1%,?
C[C@@]12C(=O)N(c3cccc(Cl)c3)C(=O)N1[C@H](c1ccc(Cl)cc1)[C@@H]1C(=O)N(C3CCCCC3)C(=O)[C@@H]12,-1%,-14%,-23%
Cc1ccc(C2=NCCn3nc4cc(C(F)(F)F)ccc4c32)cc1,-5%,1%,23%
Cc1ccc(C(=O)NC2CC3CCC(C2)N3C)cc1 (configuration not stated),-1%,-16%,0%
CCC1CCCCN1C(=O)COC(=O)COc1ccc(Br)cc1 (configuration not stated),0%,12%,-11%
O=C(NCc1ccc(F)cc1)C(=O)NCC(c1ccco1)N1CCOCC1 (configuration not stated),-1%,-2%,10%
COc1ccc(CNC(=O)c2ccc(CS(=O)(=O)Cc3ccccc3F)o2)cc1,2%,-3%,?
O=C(NCc1ccc2c(c1)OCO2)c1cccnc1Cl,0%,15%,8%
Cc1cccc(C)c1NC(=O)CN(C)C(=O)C1CC(=O)N(c2cccc3ccccc23)C1 (configuration not stated),-6%,2%,3%
CCOC(=O)[C@@H]1[C@H]2COc3ccc(Br)cc3[C@@H]2N2C(=O)N(c3ccc(Br)cc3)C(=O)[C@@]12C,-4%,-17%,-3%
O=C(c1ccc(CSc2ccc(Cl)cc2)cc1)N1CCCC1,-1%,24%,12%
CCNC(=O)COC(=O)/C=C/c1cccs1,2%,12%,0%
CCN(CC)C(=O)c1[nH]cnc1C(=O)NCCCCCNC(=O)OC(C)(C)C,6%,6%,-9%
CCC(C(=O)N1CCN(S(=O)(=O)c2ccc(F)cc2)CC1)c1ccccc1 (configuration not stated),5%,-2%,-21%
CC(C)Cc1nnc(NC(=O)c2cccc(S(=O)(=O)N3CCOCC3)c2)s1,-7%,5%,-22%
CCc1noc(C)c1C(=O)OCC(=O)NC(C)c1ccccc1 (configuration not stated),1%,7%,7%
CC(=O)Nc1ccc(S(=O)(=O)NCCNc2ccccc2[N+](=O)[O-])cc1,-3%,-4%,-9%
COc1ccc(-c2sc3ccc(OC)cc3c2-c2ccc(OC)nc2)cc1,-7%,1%,-20%
CN(c1ccccc1)S(=O)(=O)c1cccc(NC(=O)CCNC(=O)c2ccccc2)c1,0%,-19%,?
CCC(=O)c1ccc(OCC(=O)N2CCN(C(=O)c3ccccc3)CC2)cc1,-1%,7%,-13%
O=C(COC(=O)/C=C/c1cccc(Cl)c1)NC1CCCC1,-1%,-5%,-5%
C[C@H](CO)N1C[C@H](C)[C@@H](CN(C)Cc2ccc3c(c2)OCO3)Oc2ccc(NS(C)(=O)=O)cc2C1=O,-2%,-19%,-15%
Cc1cc(C)cc(NC(=O)C2CCN(c3cnccn3)CC2)c1,-4%,6%,-17%
COc1cc2sc3ccc(-c4ccc(CN5CCOCC5)cc4)cc3c(=O)c2cc1OC,-45%,6%,32µM*

# (list continues)
SMILES,SARS PLP yeast,RE007 growth inh,StopGo reporter
COc1ccccc1C(=O)NCC(=O)N1CCN(c2ncccn2)CC1,5%,-13%,-10%
COc1cc(C(=O)N2CCN(c3ccccc3F)CC2)ccc1OCC(=O)N1CCOCC1,1%,-1%,-1%
Cc1nn(-c2ccccc2)c(C)c1C(=O)OC(C)C(=O)NC1CCCCC1C (configuration not stated),-5%,-12%,?
O=C(C[C@@H]1C/C=C/CC[C@@H](Cc2ccc(F)cc2)C(=O)O[C@H](c2ccccc2)CNC1=O)NCCO,10%,-3%,0%
C#CCOCCOCCOCCNc1nc(N2CCN(C(=O)[C@H](CCCN=C(N)N)n3cc(C(N)[C@H](C)CC)nn3)CC2)nc(N2CCN(C(=O)[C@H](CCCN=C(N)N)n3cc(C(N)[C@@H](C)CC)nn3)CC2)n1 (some centres not stated),5%,3%,-8%
Cc1cccc(C)c1N1C(=O)CC(N2CCN(S(=O)(=O)c3ccccc3F)CC2)C1=O (configuration not stated),-9%,-3%,-10%
C[C@H](CO)N1C[C@H](C)[C@H](CN(C)Cc2ccccc2)Oc2c(NC(=O)Nc3ccc(F)cc3)cccc2C1=O,-1%,-5%,12%
CN(CC(=O)Nc1ccccc1Cl)CC(=O)Nc1cccc2ccccc12,-7%,-2%,-25%
Cc1ccnc(N=Cc2nc(-c3ccccc3Br)oc2O)c1,-1%,10%,48%[activator]
CCOC(=O)C1=C(COC(=O)/C=C/c2ccc(O)c(OC)c2)NC(=O)NC1C (configuration not stated),16%,13%,-29%
CC1CC(C)CN(S(=O)(=O)c2ccc(C(=O)N(C)Cc3ccccc3)cc2)C1 (configuration not stated),1%,0%,0%
Nc1ncnc2c1ncn2[C@@H]1O[C@H](CNCc2cccc(C#Cc3ccccc3)c2)[C@@H](O)[C@H]1O,-13%,-20%,-19%
Cc1ccc(S(=O)(=O)N2C[C@@H]3CCCC[C@@H]3[C@@H](C)[C@H]2c2cn(Cc3ccccc3)c3ncccc23)cc1,-6%,-6%,-25%
O=C(c1c[nH]c(C(=O)N2CCN(Cc3ccccc3)CC2)c1)C1CCCCC1,3%,-12%,-24%
C=CCN1c2ccccc2C(=O)C(C)S1(=O)=O (configuration not stated),-9%,7%,-22%
CCN(CC(=O)Nc1c(F)cccc1F)C(=O)Cc1c[nH]c2ccccc12,3%,19%,-6%
NC(=O)c1cc([N+](=O)[O-])ccc1NCc1ccccn1,1%,7%,11%

# Molecules above that have a Cl atom, in the order listed:
SMILES,SARS PLP yeast,RE007 growth inh,StopGo reporter
O=C(C[C@H]1C[C@H](C(=O)N2CCOCC2)[C@@]2(CCC3CCCC3)c3[nH]c4ccc(Cl)cc4c3CCN2C1=O)NCCc1ccccn1,-2%,-13%,-5%
O=C(COC(=O)Cc1ccc(F)cc1)Nc1ccc(Cl)cn1,0%,-6%,-1%
CCN(Cc1nc2cc(Cl)ccc2c(=O)[nH]1)C(=O)c1cccc(NC(=O)c2cccs2)c1,10%,2%,1%
Cc1cc(-n2c(C)cc(C(=O)COc3ccc(Cl)cc3C(N)=O)c2C)no1,-4%,2%,?
COc1ccc(C(=O)NC2CCC(O)CC2)cc1S(=O)(=O)NCc1ccc(Cl)cc1 (configuration not stated),-1%,0%,55%[activator]
Cc1n[nH]c(=O)c2c(NC(=O)CSc3cc(Cl)ccc3Cl)oc(C)c12,2%,13%,-17%
COc1ccc(C(CNC(=O)C(C)(C)Oc2ccc(Cl)cc2)N2CCCC2)cc1 (configuration not stated),-1%,-5%,-19%
CCN(CC)S(=O)(=O)c1ccc(Cl)c(NC(=S)NC(=O)C2CCCC2)c1,5%,-10%,20µM*
Cc1ccc(NC(=O)C2CC2C)c(Cl)c1 (configuration not stated),-2%,-13%,40%[activator]
O=C(CCC1CCCC1)Nc1cc(Cl)ccc1N1CCOCC1,1%,-7%,-17%
O=C(COC(=O)C1=COCCO1)Nc1cc(C(F)(F)F)ccc1Cl,1%,4%,-7%
Cc1cc(C(=O)C(=O)N(C)C)c(C)n1-c1ccc(Cl)c(Cl)c1,-1%,4%,-18%
C[C@@]12C(=O)N(c3cccc(Cl)c3)C(=O)N1[C@H](c1ccc(Cl)cc1)[C@@H]1C(=O)N(C3CCCCC3)C(=O)[C@@H]12,-1%,-14%,-23%
O=C(NCc1ccc2c(c1)OCO2)c1cccnc1Cl,0%,15%,8%
O=C(c1ccc(CSc2ccc(Cl)cc2)cc1)N1CCCC1,-1%,24%,12%
O=C(COC(=O)/C=C/c1cccc(Cl)c1)NC1CCCC1,-1%,-5%,-5%
CN(CC(=O)Nc1ccccc1Cl)CC(=O)Nc1cccc2ccccc12,-7%,-2%,-25%

# Bioassay records (PubChem)

# Not all compounds are listed; count on the stated rates, not on these rows.
